Sfp PPTase inh – inhibitors of Bacillus subtilis Sfp phosphopantetheinyl transferase | Q9F4F7 | Biochemical Sfp PPTase activity, qHTS | Potency, µM, inactives show max response, negative = inhibition, actives largely listed as inhibitors | actives 3.5% (n = 310,000); active = well fitted inhibition curve with a large enough effect; inconclusive = small, poorly fitted or top-dose-only effect, or another doubt; inactive = no such curve, though single readings can be large or run the other way;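 note: the enzyme is Sfp with the accession as filed and its product quenches rhodamine fluorescence; potency is the fitted concentration of half-maximal effect; 0% = enzyme reaction without inhibitor and -100% = no enzyme wells; top concentration of the series not given in the record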
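Fluorescence-quenching assay with 15 nM Sfp, 5 uM rhodamine-CoA and 12.5 uM BHQ-2-labelled ybbR peptide in pH 7.6 Hepes/MgCl2 buffer. Enzyme was pre-incubated with compound for 15 min at room temperature. Rate was taken from the 30-min fluorescence change (525/598 nm).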
CtBP-E1A inh – blocks the CtBP interaction with E1A; AlphaScreen GST-E1A/His-CtBP binding, 1536-well; active compounds read low; control for the full effect not named in the record; activity change, % (test concentration not listed); actives 0.49% (n = 340,000); AID 651724; in the data active means activity change below about -65%; inconclusive means about -30% to -65%; inactive means above about -30%; note: % is set by controls: 0 for no effect and ±100 for the full control effect
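In 5 uL wells, 23 nL compound meets equimolar GST-E1A and His-CtBP (5X stock 125 nM each) for 2 h, 37 °C. Beads (5X, 50 ug/mL) then 1 h, 37 °C, dark.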
D2 ag – agonists of human D2 dopamine receptor (beta-arrestin). DiscoveRx PathHunter D2 beta-arrestin, luminescence, 90 min; 100% = 57 uM dopamine signal. activation, % (no concentration beside the values). actives 0.084% (n = 360,000); in the data active = activation above about 40%; inconclusive = about 15% to 40%; inactive = below about 15%; note: compound concentration not given in the record; the text of the record calls up to 30% inactive
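Agonist mode: compounds alone added to overnight-plated D2 PathHunter cells for 90 min at 37 C, with 57 uM final dopamine (EC100) defining full response. Beta-arrestin recruitment detected by chemiluminescent reagent, read after 1 h at ambient temperature.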
PINK1 modulator – modulators of PINK1 expression; AID 624263; actives 0.2% (n = 410,000); Potency, µM (top dose mostly 76.6 µM), for the others: at the highest dose activation (PINK1 increase), hits mostly activators; PINK1 immunofluorescence, high-content cytometry, 24 h; active = well fitted activation curve with a large enough effect; inconclusive = small, poorly fitted or top-dose-only effect; inactive = flat fitted curve, though single readings scatter; cell line not stated here;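 note: potency is the fitted concentration of half-maximal effect; % of control where 0% means no effect; nearly all actives have a fitted effect of over 65% in size; a mitochondrial uncoupler was the plate control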
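Readout is PINK1 immunofluorescence, quantified alongside mitochondrial, cell and nuclear markers by laser-scanning microplate cytometry. Cells from a stable line were exposed to compound titrations (5 concentrations) for 24 hours, with CCCP controls.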
TRPV1 PAM – human TRPV1 potentiation; Q8NER1; TRPV1-expressing cells, Fluo-8 calcium influx, capsaicin EC20 potentiation; host cell line not named in the record; control for the full effect not named in the record; actives 0.02% (n = 320,000); potentiation, % at 8.33 µM; AID 540277; active means potentiation above 80%; inconclusive means 30% to 80%; inactive means below 30%; note: 0% is about no effect
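TRPV1-expressing cells were cultured overnight at 35.5C and loaded with Fluo-8 calcium dye for 40 to 90 min at room temperature. After a 10 s baseline, compound was added and calcium influx was read kinetically for 3 min (ex 480/em 520 nm).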
Six1-Eya2 blk – blocks human Six1 binding to Eya2; Q15475+O00167; AlphaScreen GST-Six1/His-Eya2 binding, biochemical; active compounds read low; control for the full effect not named in the record; activity change, % (test concentration not listed); actives 0.56% (n = 360,000); AID 651725; in the data active = activity change below about -65%; inconclusive = about -30% to -65%; inactive = above about -30%; note: % is set by controls: 0 for no effect and ±100 for the full control effect
Target sequence (O00167 whole entry, looked up): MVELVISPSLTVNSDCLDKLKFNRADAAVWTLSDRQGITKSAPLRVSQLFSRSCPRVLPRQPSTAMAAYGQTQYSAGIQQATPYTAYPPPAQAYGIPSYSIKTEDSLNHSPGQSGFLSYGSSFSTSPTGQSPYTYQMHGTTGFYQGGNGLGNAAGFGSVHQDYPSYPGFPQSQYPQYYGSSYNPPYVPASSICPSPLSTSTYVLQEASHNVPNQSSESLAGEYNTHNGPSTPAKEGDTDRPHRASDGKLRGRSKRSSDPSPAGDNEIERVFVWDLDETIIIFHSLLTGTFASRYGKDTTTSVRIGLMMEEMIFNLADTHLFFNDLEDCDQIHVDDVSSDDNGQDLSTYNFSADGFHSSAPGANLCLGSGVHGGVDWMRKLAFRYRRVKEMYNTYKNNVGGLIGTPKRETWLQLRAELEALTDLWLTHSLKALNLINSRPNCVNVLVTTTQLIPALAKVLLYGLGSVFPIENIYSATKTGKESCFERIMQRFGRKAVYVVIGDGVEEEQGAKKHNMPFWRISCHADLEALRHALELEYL
Target sequence (Q15475 whole entry, looked up): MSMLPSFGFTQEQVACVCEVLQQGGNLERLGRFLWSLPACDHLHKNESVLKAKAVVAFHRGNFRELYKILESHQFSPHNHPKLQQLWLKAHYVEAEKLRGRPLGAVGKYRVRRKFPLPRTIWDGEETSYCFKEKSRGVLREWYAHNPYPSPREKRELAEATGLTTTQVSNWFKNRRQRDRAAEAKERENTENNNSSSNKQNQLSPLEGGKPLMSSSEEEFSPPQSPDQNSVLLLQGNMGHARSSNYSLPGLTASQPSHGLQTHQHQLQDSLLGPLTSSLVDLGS
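Compounds are tested against tagged Six1 and Eya2 proteins bridged by glutathione donor and nickel acceptor beads; after a one-hour incubation at 37 °C without light, AlphaScreen emission is recorded.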
D2 PAM – potentiates the human D2 dopamine receptor allosterically. potentiation, % (concentration not given with the values). actives 0.23% (n = 360,000). DiscoveRx D2 beta-arrestin cells, luminescence, 90 min; 100% = 57 uM dopamine signal. AID 624464; active = potentiation of 50% or more; inconclusive = 30% to 50%; inactive = 30% or less;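 note: compound concentration not given in the record; tested on top of an EC20 dose of dopamine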
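PathHunter D2 cells, attached overnight at 37 deg C, received compound in DMSO plus dopamine at EC20 (50 nM final) for 90 min at 37 deg C. Beta-arrestin recruitment was read as luminescence after 1 h with detection reagent at ambient temperature.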
Active calls of the source: *; ? = inconclusive; . = no result given; & = joins results of further samples; [ ] = another dose, or the depositor's remark.

SMILES	Sfp PPTase inh	CtBP-E1A inh	D2 ag	PINK1 modulator	TRPV1 PAM	Six1-Eya2 blk	D2 PAM
CC1CCCN(C(=O)Cn2nnc(-c3cccnc3)n2)C1 (stereo unspecified)	-6%	-1	-1.6	-0.2%[38.3 µM]	6	1	-6
C/C(CC(=O)Nc1ccc(Cl)cc1C(F)(F)F)=N\NC(=O)c1cccs1	-15%	-3	-2.9	2.0%	-8	5	-6
Oc1ccc(/C=N/N2CCCCC2)c(O)c1O	7.9µM*	-6	2.1	-0.8%	12	-11	9
O=C(NC(C(=O)c1ccccc1)n1cnccc1=O)c1ccccc1 (stereo unspecified)	11%	-1	6.1	1.8%	1	14	17
COCCCn1c(Cc2csc(Nc3cccc(Cl)c3)n2)nnc1SCC(=O)OC1CCCCC1	?	-9	-3.5	-0.8%	6	-23	-9
COc1ccc(NC(=S)NCCc2ccccc2)c(OC)c1	4%	-7	-2.5	6.2%[38.3 µM]	-6	-10	-14
COC(=O)c1c(C)[nH]c(C(=O)OCC(=O)c2ccc(C)s2)c1C	.	-2	6.8	-0.4%	.	-5	-3
COC(=O)c1ccc2c(=O)[nH]c(COC(=O)c3c(-c4ccccc4Cl)noc3C)nc2c1	.	-3	1.8	1.4%	?	-7	12
CC1CCC(NC(=O)Cn2cnc3sccc3c2=O)CC1 (stereo unspecified)	.	8	-1.6	0.9%	3	0	-1
Cc1ccc(-c2noc(C3CCN(S(=O)(=O)c4ccc5c(c4)OCCO5)CC3)n2)o1	8%	-18	3.1	0.8%[38.3 µM]	7	-7	-12
Cc1noc(C)c1S(=O)(=O)Nc1ccc(O)c2c(=O)cc(-c3ccccc3Cl)oc12	17%	-1	-2.1	0.1%	-9	-2	-7
CN(CC(=O)Nc1ccccc1Cl)C(=O)COC(=O)c1ccc(=O)n(Cc2ccccc2)n1	.	3	-4.2	-0.6%	?	-6	-4
CNC(=S)NCc1ccc(Cl)cc1	.	7	-1.5	1.3%	.	3	-22
O=C(COc1ccc(-n2cnnn2)cc1)Nc1ccc(F)c(Cl)c1	.	0	-1.0	5.2%	.	-7	-4
Cc1noc(C)c1S(=O)(=O)N(C)C[C@@H]1OCc2cnnn2CCCC(=O)N([C@H](C)CO)C[C@@H]1C	.	5	-8.7	1.7%	.	9	7
Nc1cccc(/C=C/C(=O)O)c1	17%	11	-0.4	3.1%	3	5	-5
CCn1cc(C(=O)NN)c(=O)c2cc(F)c(N3CCCCC3)cc21	12%	4	-2.2	0.9%	5	1	-8
CCCC(C(=O)NC1CCCC1)N(C(=O)Cn1nnc(-c2ccc(C)o2)n1)c1ccccc1F (stereo unspecified)	20%	1	-1.9	5.1%	-12	1	-8
O=C(CC1(O)C(=O)N(CN2CCOCC2)c2ccccc21)c1ccccc1 (stereo unspecified)	4%	-2	-0.7	3.3%	4	-2	-4
Cc1cc(C)c(NC(=O)C2CCC(=O)N2)c(C)c1 (stereo unspecified)	1%	8	0.7	1.9%	7	3	-11
Cc1ccc(S(=O)(=O)N(C)CC(=O)NC2CCCC2)cc1	14%	-2	-2.8	-1.3%	1	3	-45
COc1ccccc1NS(=O)(=O)c1cccc(C(=O)N/N=C/c2ccc(OCC(=O)O)cc2)c1	7%	-5	0.3	0.5%	6	1	-3
COc1ccc(NS(=O)(=O)c2cccc(C(=O)NNC(=O)c3cncc(Br)c3)c2)cc1	.	1	1.8	2.1%	-3	-3	3
Cc1cc(C)c2c3c(sc2n1)C1(CCSCC1)C(C#N)=C(N)O3	-9%	2	6.1	.	-11	-7	3
O=C(Nc1ccc2c(c1)OCO2)c1ccc(S(=O)(=O)NCC2CCCO2)cc1 (stereo unspecified)	11%	12	-4.6	-3.0%	21	-9	-10

New compounds follow.
SMILES	Sfp PPTase inh	CtBP-E1A inh	D2 ag	PINK1 modulator	TRPV1 PAM	Six1-Eya2 blk	D2 PAM
NC(=O)c1cccc(-c2csc(C(O)c3cccc(Cl)c3)n2)c1 (stereo unspecified)	.	1	9.4	1.4%	.	-6	5
Cn1c(/C=C/N2CCOCC2)c(C(=O)c2ccc(Br)cc2)c(=O)n(C)c1=O	-10%	-14	-0.6	0.9%	24	-4	4
COc1cc(C(C)=O)ccc1OCC(=O)Nc1ccccc1N1CCCCC1	.	0	-3.8	-1.7%	-18	-7	-3
CCC(=O)c1ccc(SC(=O)N(C)C)cc1O	10%	2	-3.8	-0.1%	-38	1	-8
C=C(c1ccccc1O)n1ccnc1	4%	-11	-5.2	1.3%	-5	-16	-2
CCOc1ccc(-n2cnnn2)cc1S(=O)(=O)NC1CC1	11%	1	-0.1	1.8%[38.3 µM]	9	4	8
O=C(Cc1ccc([N+](=O)[O-])cc1)N/N=C/c1ccc([N+](=O)[O-])o1	-4%	.	0.8	35µM*	-13	-4	-2
C=C(C)C1(O)OC(=O)C=C1OC (stereo unspecified)	5%&8%	9	8.1	-0.6%&1.0%	11	2	-14
COC(=O)CNC(=O)C(Cc1c[nH]c2ccccc12)NC(=O)Oc1ccccc1 (stereo unspecified)	5%	5	-5.3	0.4%	-2	-2	-2
O=[N+]([O-])c1ccc(NC(=S)N2CCc3ccccc3C2)cc1	4%	-6	1.4	13%	-41	-9	-15
COc1ccc(CNC(=O)c2ccc(S(=O)(=O)N3CCOCC3)cc2)cc1	.	5	-1.3	6.8%	1	0	-64
COc1ccc(CNC(=O)/C=C/c2cc([N+](=O)[O-])ccc2OC(F)F)cc1	-17%	5	0.0	3.5%[38.3 µM]	-6	0	-14
c1ccc(CCn2nnnc2C(c2cccnc2)N2CCN(c3nc4ccccc4s3)CC2)cc1 (stereo unspecified)	2%	6	4.9	.	-2	-6	2
C=C1CCC(O)C2(C)CCC3C(C)C(=O)OC3C12O (stereo unspecified)	4%	10	1.2	1.2%	4	0	-2
O=C(Nc1cccnc1)c1ccc(CSc2ccccc2)cc1	?	-1	-2.4	1.3%	7	2	-3
O=C(OCc1ccc(Cl)c(Cl)c1)c1ccc[nH]1	-4%	17	0.4	0.7%	-7	0	7
O=C(CSc1nnc(-c2cccs2)n1Cc1ccco1)Nc1ccc2c(c1)OCO2	?	-9	-1.2	-2.4%	-5	-13	17
O=C(COC(=O)c1c(F)cccc1F)NCc1ccc2c(c1)OCO2	.	4	9.2	1.0%	-17	7	-2
Cc1ccc(CS(=O)Cc2ccc(C(=O)NC3CCCC(C)C3C)o2)cc1 (stereo unspecified)	9%	2	13	-0.3%	21	2	-3
c1ccc(-c2ccccc2OCCCN2CCCC2)cc1	-62%	5	-1.5	-3.1%	0	-3	-16
O=C(CS(=O)(=O)Cc1ccccc1)Nc1ccc(S(=O)(=O)N2CCOCC2)cc1	5%	-25	-1.8	2.1%	2	6	2
Cc1nc2sc(C(c3ccco3)N3CC(C)OC(C)C3)c(O)n2n1 (stereo unspecified)	25µM*	4	-1.1	-0.9%	1	0	7
COc1cc(OC)cc(C(=O)N[C@H](C(=O)Nc2cc(F)ccc2C)C(C)C)c1	11%	10	1.4	8.3%	-35	-5	0
COC(=O)c1ccc(OC)c(CN2CCCN(Cc3ccc(F)cc3)S2(=O)=O)c1	4%	10	-0.3	-1.1%	-9	1	-9
O=C(N/N=C/c1cccs1)c1cc(-c2ccc3ccccc3c2)n[nH]1	-1%	-3	8.1	4.4%	10	-5	?

Record cards, as listed above. Values in the order: Sfp PPTase inh, CtBP-E1A inh, D2 ag, PINK1 modulator, TRPV1 PAM, Six1-Eya2 blk, D2 PAM
NC(=O)c1cccc(-c2csc(C(O)c3cccc(Cl)c3)n2)c1 (stereo unspecified) is listed with ., 1, 9.4, 1.4%, ., -6, 5
O=C(COC(=O)c1c(F)cccc1F)NCc1ccc2c(c1)OCO2 is listed with ., 4, 9.2, 1.0%, -17, 7, -2
Cc1nc2sc(C(c3ccco3)N3CC(C)OC(C)C3)c(O)n2n1 (stereo unspecified) is listed with 25µM*, 4, -1.1, -0.9%, 1, 0, 7

Other results follow:
SMILES	Sfp PPTase inh	CtBP-E1A inh	D2 ag	PINK1 modulator	TRPV1 PAM	Six1-Eya2 blk	D2 PAM
Nc1nonc1-n1nnc(C(=O)N/N=C/c2cccnc2)c1-c1ccccc1	18%	4	-1.9	-0.2%	-7	2	-14
O=C(Nc1cccc(Cl)c1)Nc1ccccc1C(=O)O	14%	-26	-1.5	0.6%	11	0	-11
COc1cccc(CC(=O)Nc2nc3ccccc3[nH]2)c1	7%	-4	-1.4	8.9%	-3	9	-5
CC(C)NC(=O)CN(c1cccc(Br)c1)S(C)(=O)=O	9%	-21	-0.6	-4.6%[38.3 µM]	5	6	-15
CC(C)(NC(=O)N1CCCC1)c1cccc(C(C)(C)NC(=O)N2CCCC2)c1	6%	-1	-0.9	1.4%	10	7	2
C=CCOC(=O)C1=C[C@@H](c2coc3ccccc3c2=O)[C@H](CCCO)[C@@H](OCC)O1	0%	1	0.8	0.7%	-13	3	7
Cc1c(-c2ccccc2)n[nH]c1C(=O)N=Nc1c(O)[nH]c2ccccc12	12%	2	1.3	10%	-4	-2	2
CCc1ccc(OCC(=O)NC(=S)Nc2ccc(C)cc2C)c(Br)c1	3%	-2	-0.4	-0.5%[38.3 µM]	1	-9	-2
Cc1ccc(S(=O)(=O)N2CCC(C(=O)OCC(=O)N(C)CC(=O)Nc3ccc(F)cc3)CC2)cc1C	.	-17	3.4	2.7%	3	3	14
CCCCNS(=O)(=O)c1ccc(OCC(=O)OC)cc1	3%	10	-4.3	9.8%	2	-3	-14
C[C@H](CO)N1C[C@H](C)[C@@H](CN(C)S(=O)(=O)c2cn(C)cn2)Oc2ccc(NC(=O)Nc3ccc4c(c3)OCO4)cc2C1=O	.	0	2.1	-0.3%	.	11	1
COC(=O)CC(=O)Cc1nc(N)nc(Nc2ccc(C)c(C)c2)n1	6%	-7	1.4	.	-1	-4	1
Nc1c(O)cccc1C(=O)O	.	-8	13	-0.3%	.	-8	14
Cc1ccc(-n2nc3c([n+]2[O-])CCc2nonc2-3)cc1	11%	-16	7.3	-1.6%	-8	3	-3
C[C@H]1CN(C2CCCCC2)C(=O)[C@@H]1CC(=O)NCc1ccccc1	11%	0	-0.7	0.0%	29	7	-12
CC(C)(C)c1ccc(/C=C/C(=O)N2CCOCC2)cc1	3%	-8	0.1	4.6%	12	-9	-12
Cc1cccc([N+](=O)[O-])c1NC(=O)CN(Cc1ccccc1)Cc1ccccc1	-5%	-10	1.2	-0.4%	3	-13	-16
COc1ccc(N2C(=O)c3ccccc3NC2(C)C)cc1	21%	0	-3.0	-1.8%	2	3	3
CCOc1ccc2c(c1)c(=O)c(S(=O)(=O)c1ccc(C)cc1)cn2CC	5%	0	-4.4	-0.9%	-24	10	-2

Screening results (PubChem BioAssay)
